# Screening data: PubChem, National Center for Advancing Translational Sciences (NCATS)
# TRPV1 potentiator – human TRPV1 potentiation. TRPV1-expressing cells, Fluo-8 calcium influx, capsaicin EC20 potentiation; host cell line not named in the record; control for the full effect not named in the record. potentiation, % at 8.33 µM. hit rate 0.02% among 320,000. AID 540277; active means potentiation above 80%; inconclusive means 30% to 80%; inactive means below 30%; further: 0% is about no effect
# Target sequence (Q8NER1 whole entry, looked up): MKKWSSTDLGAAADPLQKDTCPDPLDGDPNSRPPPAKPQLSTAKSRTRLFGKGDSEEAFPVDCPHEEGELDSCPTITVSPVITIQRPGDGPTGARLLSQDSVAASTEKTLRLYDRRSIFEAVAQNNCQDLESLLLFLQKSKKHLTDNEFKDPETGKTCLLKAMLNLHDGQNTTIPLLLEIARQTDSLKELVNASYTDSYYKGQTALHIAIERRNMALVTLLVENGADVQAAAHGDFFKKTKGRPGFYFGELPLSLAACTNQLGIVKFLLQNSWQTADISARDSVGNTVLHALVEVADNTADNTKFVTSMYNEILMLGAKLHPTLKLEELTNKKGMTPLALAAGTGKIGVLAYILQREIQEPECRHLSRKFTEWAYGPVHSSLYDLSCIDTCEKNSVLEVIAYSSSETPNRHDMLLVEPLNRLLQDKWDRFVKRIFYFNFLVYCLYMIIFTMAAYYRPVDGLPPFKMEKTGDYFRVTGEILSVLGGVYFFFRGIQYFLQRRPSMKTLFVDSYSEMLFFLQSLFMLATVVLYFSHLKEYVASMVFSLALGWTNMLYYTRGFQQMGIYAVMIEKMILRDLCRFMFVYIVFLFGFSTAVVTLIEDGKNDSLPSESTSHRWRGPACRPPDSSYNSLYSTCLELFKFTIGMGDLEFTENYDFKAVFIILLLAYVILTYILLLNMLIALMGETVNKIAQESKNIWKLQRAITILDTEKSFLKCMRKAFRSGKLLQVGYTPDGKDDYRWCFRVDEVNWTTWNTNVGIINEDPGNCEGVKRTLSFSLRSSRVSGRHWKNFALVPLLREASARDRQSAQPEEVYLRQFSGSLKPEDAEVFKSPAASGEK
#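 TRPV1-expressing cells were cultured overnight at 35.5C and loaded with Fluo-8 calcium dye for 40 to 90 min at room temperature. After a 10 s baseline, compound was added and calcium influx was read kinetically for 3 min (ex 480/em 520 nm).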
# gsp antag – antagonists of gsp mutant (McCune-Albright syndrome) | Potency, µM (doses to about 76.9 µM), for the others: at the top dose activity change, negative = inhibition, hits mostly inhibitors | gsp-mutant cells, cAMP HTRF, 30 min; control for the full effect not named in the record | hit rate 0.4% among 340,000 | AID 624288; active = falling curve of any shape with a large fitted effect; inconclusive = falling curve, mostly with a smaller effect; inactive = flat or rising curve; cell line not stated here;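 further: intracellular cAMP measured with PDE inhibitor Ro 20-1724 present during compound exposure; potency means the concentration at half of the fitted maximal effect; on the % scale 0 is the no-effect control and ±100 the full control effect; nearly all actives have a fitted effect of over 65% in size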
#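 Cells, 2000/well, grown 16–24 h in DMEM 10% FBS with 0.5 mg/ml G418, then compounds plus […] (300 uM addition stock), 30 min at 37C. cAMP read by HTRF (cAMP-d2 and anti-cAMP antibody-K in lysis buffer) after 30 min RT.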
# TRPML1 blocker – human mucolipin-1 channel inhibition. Q9GZU1. TRPML1-inducible cells, Ca2+ dye fluorescence, FDSS; hits give low values; inhibition of EC80 agonist-evoked calcium signal. activity change, negative = inhibition, % (no concentration beside the values). hit rate 0.02% among 390,000. AID 624415; in the data active means activity change below about -50%; inconclusive means about -30% to -50%; inactive means above about -30%;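 further: stimulus is agonist 54-4 at its EC80 concentration; on the % scale 0 is the no-effect control and ±100 the full control effect; compound concentration not given in the record; the text of the record puts the active cut at -80%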
#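 Calcium fluorescence in TRPML1-DL cells induced overnight with Tet: a 110 s read after compound pin addition, then a 110 s antagonist read after challenge with 54-4 at 4 uM final (EC80).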
# gsp ag – gsp mutant agonism. gsp mutant cells, cAMP HTRF, 30 min; control for the full effect not named in the record. Potency, µM (series often up to 76.9 µM), inactives show at the top dose activation (cAMP increase), most hits filed as activators. hit rate 0.13% among 340,000; active = well fitted activation curve with a large enough effect; inconclusive = small, poorly fitted or top-dose-only effect, or another doubt; inactive = no such curve, though single readings can be large or run the other way; cell line not stated here;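 further: phosphodiesterase inhibitor Ro 20-1724 added with compounds to block cAMP breakdown; potency means the concentration at half of the fitted maximal effect; nearly all actives have a fitted effect of over 60% in size; about a fifth of the inactives were tested at one dose only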
#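 Cells stably selected in G418 were plated at 2000/well, grown 16-24 hr, then given compounds in DMSO with the PDE inhibitor […] (300 uM solution added) for 30 min at 37C; cAMP was read by HTRF.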
# Sfp PPTase inh – Sfp phosphopantetheinyl transferase inhibition; Potency, µM, without a hit: max response, negative = inhibition, actives largely listed as inhibitors; Biochemical Sfp PPTase activity, qHTS; Q9F4F7; hit rate 3.5% among 310,000; active means well fitted inhibition curve with a large enough effect; inconclusive means small, poorly fitted or top-dose-only effect, or another doubt; inactive means no such curve, though single readings can be large or run the other way;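 further: the enzyme is Sfp with the accession as filed and its product quenches rhodamine fluorescence; potency means the concentration at half of the fitted maximal effect; 0% = enzyme reaction without inhibitor and -100% = no enzyme wells; top concentration of the series not given in the record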
#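 Fluorescence-quenching assay with 15 nM Sfp, 5 uM rhodamine-CoA and 12.5 uM BHQ-2-labelled ybbR peptide in pH 7.6 Hepes/MgCl2 buffer. Enzyme was pre-incubated with compound for 15 min at room temperature. Rate was taken from the 30-min fluorescence change (525/598 nm).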
# Menin-MLL FL inh – inhibitors of human menin-MLL interaction, wild-type MLL peptide | FP activity change, % at 61.4 µM | Fluorescence polarization, fluorescein-MLL peptide displacement from menin | 290,000 tested, under 10 active; inconclusive = falling polarisation curve, or a change in total fluorescence; inactive = total fluorescence flat and polarisation flat or rising; no compound was filed as active; the % refers to the polarisation; negative = inhibition;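 further: % of control where 0% means no effect; inhibitors lower the polarisation; unlabelled MLL peptide was the positive control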
# ClpP mod – qHTS Assay for Activators of ClpP. hit rate 1.9% among 340,000. purified B. subtilis ClpP, FRET peptide cleavage, 20 min. Potency, µM (doses to about 57.5 µM), for inactives: at the highest dose activity change, negative = active. AID 651965, 2013. ATP-dependent Clp protease proteolytic subunit (Bacillus subtilis (strain 168)), P80244; active = well fitted falling curve with a large enough effect; inconclusive = small, poorly fitted or top-dose-only effect; inactive = no such curve, though single readings can be large or run the other way; further: potency means the concentration at half of the fitted maximal effect; the source files actives as falling curves though it sought activators and does not explain the sign; nearly all actives have a fitted effect of over 65% in size; many hits overshoot -100%
# Target sequence (P80244 whole entry, looked up): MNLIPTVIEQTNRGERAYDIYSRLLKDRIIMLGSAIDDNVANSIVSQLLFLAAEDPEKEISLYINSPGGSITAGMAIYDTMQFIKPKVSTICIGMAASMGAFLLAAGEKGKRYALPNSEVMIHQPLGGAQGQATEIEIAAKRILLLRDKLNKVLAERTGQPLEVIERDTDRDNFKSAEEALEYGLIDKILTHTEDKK
#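 Purified B. subtilis ClpP, 10 microg/mL final in Tris/HCl pH8 with KCl, BSA, glycerol and Tween-20, cleaved an Abz/nitrotyrosine-quenched decapeptide. Fluorescence (ex 320, em 430) was read at 0 and 20 min at room temperature. Delta was normalized to 5.8 microM ADEP and DMSO/no-enzyme controls.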
# * marks the source's active call; other numbers are inactive results; ? = inconclusive; · = not tested or not shown; & = joins results of further samples; [ ] = remark or other dose.
SMILES,TRPV1 potentiator,gsp antag,TRPML1 blocker,gsp ag,Sfp PPTase inh,Menin-MLL FL inh,ClpP mod
O=C(C[C@@H]1C/C=C\C[C@@H](Cc2ccc(F)cc2)C(=O)OC[C@@H](Cc2c[nH]c3ccccc23)NC1=O)NCCO,·,3%,0,-22%,·,·,-4.5%
O=C1NCCN(Cc2c(F)cccc2Cl)C1CC(=O)N1CCCO1 (stereo not drawn),4,8%,6,-8%,16%,-3.1,·
COc1ccc(CN(C(=O)c2oc3ccc(F)cc3c2C)C2CCS(=O)(=O)C2)cc1 (stereo not drawn),0,?,-4,8%[15.4 µM],-8%,-0.3,-0.4%
OC(CNCCNc1ncccc1C(F)(F)F)COc1ccc(F)cc1 (stereo not drawn),16,22%,43,4%[15.4 µM],10%,4.3,0.6%
Cc1ncc(CO)c(/C=N/NC(=O)c2ccc(O)cc2)c1O,16,4%,4,3%,-4%,-2.5,?
COc1ccccc1CCCNC(=O)C1CCC(=O)N(CCc2ccc(Cl)cc2)C1 (stereo not drawn),-4,-29%,23,-22%,14%,-1.0,-2.8%
COc1ccc(C)cc1NC(=O)CN(c1ccc(C)cc1)S(C)(=O)=O,0,-2%,13,-11%,18%,1.0,·
CCC(C)[C@H]1COCCS(=O)(=O)N1Cc1ccccc1F (stereo partly drawn),-6,-6%,1,-2%,6%,5.5,-0.9%&2.8%
CC12COC3(C(=O)N4CCN(c5ccccn5)CC4)CC1CCC32C (stereo not drawn),-10,2%,0,?,1%,1.0,-5.2%
CCC(C(=O)O)P(=O)(c1ccc(Cl)cc1)c1ccc(Cl)cc1 (stereo not drawn),-1,0%,8,-48%[inhibitor],4%,-1.0,·
CC1=C(C(=O)OC2CCCCC2)C(c2cccnc2)n2ncnc2N1 (stereo not drawn),4,5%,-20,?,1%,-0.2,?
COc1ccc(N2CCN(C(=O)Cc3csc(NC(=O)Nc4ccccc4OC)n3)CC2)cc1,3,-13%,9,11%,·,·,0.8%
O=C(Nc1cccc(Cl)c1)Nc1cnccn1,-13,3%,1,-26%,15%,-3.9,-5.7%
COc1ccc([C@H]2C[C@H](n3cc(COC(=O)c4ccccc4)nn3)[C@@H](O)CN2C(=O)c2cccs2)cc1,·,·,-4,-52%[inhibitor],·,·,-0.2%
NC(=O)N/N=C\c1cc(Br)ccc1O,17,3%,2,-14%[15.4 µM],1%,2.0,1.1%
CN1CCN(CCc2nc3cc(NC(=O)COc4ccc(Cl)cc4)ccc3n2C)CC1,-15,5%,-23,?,12%,·,-0.5%
COc1cccc(N2C(=O)C(Cc3c[nH]c4ccccc34)NC2=S)c1 (stereo not drawn),6,14%,23,-51%[inhibitor],?,12,0.3%
CN(C)S(=O)(=O)c1ccc(C(=O)Oc2ccccc2)cc1,-11,-10%,58,-2%,4%,1.4,-1.9%
COc1ccc(NC(=O)Cn2nc(C(=O)O)c3ccccc3c2=O)cc1OC,?,2%,3,?,10%,3.0,·
CCc1c(C)sc(NC(=O)c2ccco2)c1C(=O)N1CCCCC1,-12,-8%,19,-2%,-16%,-2.5,1.0%
O=C1CCN(S(=O)(=O)c2ccccc2)CCN1CCOCc1cccc(F)c1,-9,1%,4,0%,10%,-0.1,-0.4%
CN(C)c1ccc(CNC(=O)CN(C)S(=O)(=O)c2ccc3c(c2)c(=O)n(C)c(=O)n3C)cc1,2,8%,-20&10,-31%[inhibitor],3%,·,-4.3%&-1.0%
C=C(C)Cn1c(C2CC(=O)N(Cc3ccccc3)C2)nc2ccccc21 (stereo not drawn),3,-7%,-2,-6%,9%,-2.7,1.3%
Cc1ccc(-c2nnn(CC(=O)NCC3COCCO3)n2)o1 (stereo not drawn),15,-3%,5,27%,23%,2.6,0.4%
Cc1cccc(C(=O)NC(=S)N2CCN(c3ccc([N+](=O)[O-])cc3)CC2)c1,9,-7%,-6,-41%[inhibitor],-6%,11,0.0%
Nc1nc(SCc2ccc(F)cc2)ns1,2,8%,-7,14%[15.4 µM],9%,-1.1,·
CCCn1cc(S(=O)(=O)CC(=O)N2CCc3ccccc32)c2ccccc21,-6,?,12,0%,-4%,2.3,-1.8%
O=C(c1ccccc1)c1ccc(CN2C(=O)c3ccccc3C2=O)o1,2,-20%,-3,3%,7%,1.4,0.5%
CCCn1c(NCc2ccc(C)o2)nc2ccccc21,5,4%,-8,-43%[inhibitor],-4%,-0.8,1.2%
CCCCCCN1C(=O)C(O)=C(C(C)=O)C1c1ccc(Cl)cc1 (stereo not drawn),7,-7%,28,0%,-7%,4.8,-5.9%
Cc1cc(C)c2ccc(C)[n+]([O-])c2c1O,5,8%,4,2%,-18%,3.0,-2.4%
COc1ccc(N2CCN(C(=O)C(NC(=O)c3c(F)cccc3F)C(C)C)CC2)cc1 (stereo not drawn),24,2%,-7,-10%,9%,-0.3,·
CCOC(=O)C1CCN(Cc2nc3ccccc3c(=O)n2-c2ccc(F)cc2)CC1,0,-20%,-11,0%,-2%,-15,-3.0%
O=C(Nc1ccn(CCCN(CCCn2ccc(NC(=O)OCc3ccccc3)nc2=O)CCc2cc3ccccc3[nH]2)c(=O)n1)OCc1ccccc1,·,-15%,-19,·,·,·,0.5%
O=C(NCc1ccco1)C1CCCN1C(=O)Nc1ccccc1Cl (stereo not drawn),3,6%,13,?,10%,1.6,0.1%
C/C(=N\OC(=O)Nc1ccc(Cl)cc1)c1ccc(F)c(F)c1,-14,6%,12,-6%,7%,1.6,·
O=c1[nH]c(SCc2ccc(F)cc2)nc2c1cnn2-c1ccc(F)cc1,-20,2%,-3,1%,-19%,-4.4,-1.8%
COc1ccc(CC(=O)Oc2ccccc2Cl)cc1S(=O)(=O)N1CCOCC1,12,-8%,4,-11%[15.4 µM],·,·,·
O=c1ccnc(SCn2nnc3ccccc3c2=O)[nH]1,-2,6%,-2,?,-4%,0.1,-0.8%
COc1ccc([N+](=O)[O-])cc1N(CC(=O)NC1CCCC1)S(C)(=O)=O,5,5%,1,-1%[15.4 µM],19%,0.3,·
Nc1ccc(Cc2ccc(N)c(O)c2)cc1O,8,·,-3,-2%[15.4 µM],-1%,?,·
Cc1nc(NC(=O)c2ccccc2)sc1-c1csc(NCc2ccco2)n1,?,-6%,-6,-3%,18µM*,17,-4.5%
O=C(Nc1nnc(S(=O)(=O)N2CCCC2)s1)c1ccccc1Br,25,?,-14&14,25%,9%,-4.8,0.7%&-2.4%
O=C(CN1CCCC1)Nc1ccc(OC(F)(F)F)cc1,15,11%,2,3%[15.4 µM],-21%,1.1,0.9%
Cc1nc(-c2cccc(NC(=O)c3cccc(S(=O)(=O)N4CCCC4)c3)c2)cs1,-1,?,-6,7%,·,·,1.5%
CCN1C(=O)[C@@H]2[C@@H](c3ccc(-c4ccc(Cl)c(Cl)c4)cc3)N3CCC[C@@]3(C(=O)OC)[C@@H]2C1=O,·,1%,?,-29%,·,·,-7.7%
CCc1ccc(NC(=O)C(C)OC(=O)/C=C/c2ccc(O)c(OC)c2)cc1 (stereo not drawn),·,-9%,-11,-6%[15.4 µM],·,·,-2.1%
CC(C)N(C(=S)Nc1cccc(C(F)(F)F)c1)C(C)c1ccccn1 (stereo not drawn),-22,5%,-27,-5%[15.4 µM],-8%,-1.4,0.6%
CCOC(=O)C1=C(C)NC(=O)NC1c1cc(C)sc1C (stereo not drawn),4,-3%,6,18%,24%,-0.5,-2.0%
CCn1cc(CN2CCN(C)C(CCO)C2)c2ccccc21 (stereo not drawn),-3,-1%,-5,-50%[inhibitor],14%,1.0,·
CC1CCCCN1CCCNC(=O)c1ccc2nc(N3CCCCC3)sc2c1 (stereo not drawn),-5,8%,44,0%,14%,1.7,4.2%
COc1ccc2[nH]c(=O)c(CN(Cc3cccs3)C(=S)Nc3cccc(C)c3)cc2c1,-5,?,-3,0%,-10%,·,-23%
COc1ccc(CCNC(=O)c2cc3c(cc2Cl)N2CCCCCC2=NS3(=O)=O)cc1,2,0%,44,-5%[15.4 µM],·,·,-6.6%
CCOc1ccc(C2c3[nH]c4ccccc4c3CCN2Cc2cccn2-c2ncccn2)cc1 (stereo not drawn),-14,-9%,-5,-9%[15.4 µM],-27%,8.3,·
O=C(O)c1ccc(Cl)c(S(=O)(=O)Nc2ccccc2Cc2ccccc2)c1,15,-12%,5,-5%,13%,0.1,·
CCc1ccccc1NC(=O)CN1CCN(C(=O)CNC(=O)c2ccccc2F)CC1,10,16%,8,-20%,·,·,1.2%
CN(C)NC(=S)NC(=O)C12CC3CC(CC(C3)C1)C2,-14,2%,15,-6%[15.4 µM],?,-1.6,·
CC(C)NC(=O)CC1(C(=O)NCc2ccc(Cl)cc2)CCCC1,-1,11%,-17,?,-3%,-7.7,1.5%
COc1ccc(N2CCN(C(=O)c3ccccc3N(C)S(=O)(=O)c3ccccc3)CC2)cc1,10,4%,-12,-31%[inhibitor],3%,·,2.0%
CN(C)C(=O)Cn1c(SCC(=O)N2CCCc3ccccc32)nc2ccccc21,9,-7%,-14,-2%,9%,3.7,0.7%
COC(=O)C1=C(C)NC(=O)CC1c1ccccc1 (stereo not drawn),-11,5%,-11,-30%[inhibitor],10%,0.6,-6.1%
COc1cc2ccccc2cc1C(=O)Nc1ccc(N2CCN(C)CC2)cc1,-2,13%,-12,8%,-10%,1.9,5.8%

# Rewritten with values under each structure: two of the compounds above
# Screens in order: TRPV1 potentiator	gsp antag	TRPML1 blocker	gsp ag	Sfp PPTase inh	Menin-MLL FL inh	ClpP mod
Cc1nc(NC(=O)c2ccccc2)sc1-c1csc(NCc2ccco2)n1
 : ?	-6%	-6	-3%	18µM*	17	-4.5%
COc1ccc(N2CCN(C(=O)Cc3csc(NC(=O)Nc4ccccc4OC)n3)CC2)cc1
 : 3	-13%	9	11%	·	·	0.8%
